HSV augment – HSV replication enhancement. HSV replication augmentation in cells, fold increase. maximum fold increase. 220,000 tested, 0.005% active;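 active = peak rise of 1.5-fold or more in the series; tested in PC3 cells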;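 also: first round at 10 µM; read as green reporter fluorescence; hits show the peak of a series up to 25 µM; 1 = signal of infected wells without compound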
GALR2 agonist – GALR2 (human) receptor agonism; GALR2-expressing cells, agonist activation read-out; 140,000 tested, 0.48% active; O43603; activation, %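 (tested at 5 µM)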;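 active = above mean plus 3 SD of all compounds, about 5% in these data, not always enough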;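 also: 0% = vehicle buffer wells and 100% = reference agonist at full effect; tested in CHO reporter cells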
Target sequence (O43603 whole entry, looked up): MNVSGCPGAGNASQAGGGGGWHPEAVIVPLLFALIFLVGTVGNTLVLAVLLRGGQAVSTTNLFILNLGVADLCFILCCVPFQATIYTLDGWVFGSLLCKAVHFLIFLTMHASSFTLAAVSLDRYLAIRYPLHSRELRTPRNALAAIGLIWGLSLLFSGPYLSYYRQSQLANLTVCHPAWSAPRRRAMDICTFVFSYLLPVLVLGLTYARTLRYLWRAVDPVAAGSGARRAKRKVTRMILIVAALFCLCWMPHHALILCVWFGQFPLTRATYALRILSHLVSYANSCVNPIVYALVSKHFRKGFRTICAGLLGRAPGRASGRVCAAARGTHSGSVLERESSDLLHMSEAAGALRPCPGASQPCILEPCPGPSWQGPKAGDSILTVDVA
RGS16-Gao – regulators of human RGS16-Galphao interaction | AID 1441 | binding response (% of control), % at 10 µM | O15492+P09471 | bead-based flow cytometry RGS16-Galphao binding, fluorescence; actives lie on both sides | 220,000 tested, 0.38% active;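 active = below 25% or above 175%, edge rows of some plates excepted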;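 also: Galphao activated by GDP with aluminum fluoride before binding; 100% = wells without compound and 0% = beads without RGS; some results beyond the cut were filed as inactive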
Target sequence (O15492 whole entry, looked up): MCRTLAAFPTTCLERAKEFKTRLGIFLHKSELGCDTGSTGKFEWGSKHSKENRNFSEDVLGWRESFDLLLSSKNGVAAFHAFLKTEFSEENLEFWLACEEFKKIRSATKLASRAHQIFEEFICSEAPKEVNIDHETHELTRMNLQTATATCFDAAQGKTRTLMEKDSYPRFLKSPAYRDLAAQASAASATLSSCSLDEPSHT
Target sequence (P09471 whole entry, looked up): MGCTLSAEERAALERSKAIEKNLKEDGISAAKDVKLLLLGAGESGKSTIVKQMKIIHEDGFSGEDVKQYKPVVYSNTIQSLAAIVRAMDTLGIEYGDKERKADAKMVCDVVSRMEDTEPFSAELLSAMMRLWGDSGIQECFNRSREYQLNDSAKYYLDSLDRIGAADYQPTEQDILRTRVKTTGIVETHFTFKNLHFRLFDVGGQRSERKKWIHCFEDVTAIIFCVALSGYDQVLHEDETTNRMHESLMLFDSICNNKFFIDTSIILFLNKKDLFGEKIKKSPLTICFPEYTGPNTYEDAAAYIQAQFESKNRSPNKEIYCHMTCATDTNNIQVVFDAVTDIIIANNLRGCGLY
PKD1 inh – inhibitors of human PKD1 kinase | Q15139 | PKD1 kinase fluorescence polarization assay | inhibition, %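 (about 10 µM by stock and volumes)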 | 200,000 tested, 0.056% active | AID 797;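 active = inhibition of 50% or more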;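 also: controls were vehicle for no effect and a reference inhibitor for full effect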
Insulin prom inh – TRM-6 insulin promoter activity inhibition. TRM-6 cells (human fetal islet line), insulin promoter-eGFP reporter, imaging; reporter expression induced with tamoxifen. inhibition, % at 2 µM. 130,000 tested, 0.9% active;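 active = inhibition above the mean plus 3 SD, with well images judged a real hit on visual review, cut at about 60% in these data, passing the limit was not always enough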
Insulin prom inh cell count – recorded beside Insulin prom inh, whose call it bears; normalized cell count, %; measured here: cell count, toxicity; reference of the scale not given here;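 cells exposed to compound for 48 h; stained nuclei by imaging scaled within each plate; lower means fewer cells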
HSV augment primary fold – also measured in HSV augment; calls as there; fold increase; compound at 10 µM; measured here: primary screen fold increase 10 uM; tested in PC3 cells;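 GFP signal in the first replicate; 1 = infected wells without compound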
An asterisk follows results filed as active; i = inactive; nt = no result given.

compound	HSV augment	HSV augment primary fold	GALR2 agonist	RGS16-Gao	PKD1 inh	Insulin prom inh	Insulin prom inh cell count
COc1ccc(S(=O)(=O)Cc2ccc(C(=O)N3CCN(c4ccccn4)CC3)o2)cc1	i	0.94	-0.8	97	-5	nt	nt
CCn1c(NC(=O)c2cccc(Cn3cc(Cl)cn3)c2)nc2ccccc21	i	0.9	-0.8	95	0	nt	nt
Cn1c(C(=O)N2CCCC(C(=O)NCCCSC3CCCCC3)C2)cc2sccc21 (centres undefined)	nt	nt	0.2	102	-6	nt	nt
CC1=NCCN1S(=O)(=O)c1cc([N+](=O)[O-])ccc1Cl	i	1	nt	105	-2	-5	28
CCCCCC1=CCC/C1=N\NC(=O)c1ccc2c(c1)OCO2	i	0.97	nt	97	-3	nt	nt
Cc1ccc(CNC(=O)CN2C(=O)COc3ccc(C)cc32)cc1	i	0.95	-2.1	93	3	nt	nt
COc1ccccc1CNCC(O)(c1ccc(Cl)cc1)c1ccc(Cl)cc1	i	0.77	-0.8	111	1	nt	nt
CSc1ccccc1C(=O)C1CCCN(Cc2cnn(-c3ccccc3)c2)C1 (centres undefined)	i	0.93	nt	100	1	nt	nt
CCC(C)(C)n1nnnc1C(c1ccccn1)N1CCOCC1 (centres undefined)	i	0.77	-0.4	116	-11	-3	79
CC(C)CC(CO)N1CCN(C(=O)c2ccc(C(C)(C)C)cc2)CCC1=O (centres undefined)	i	0.78	-0.3	84	-11	10	49
O=C(CCC(=O)OCCCC(F)(F)C(F)(F)F)Nc1ccc(Cl)cc1Cl	i	0.94	-0.6	109	-1	-4	112
Brc1csc(/C=N/Nc2nc3ccccc3s2)c1	i	1.1	-1.1	96	-3	42	115
CCC1=NN2C(=N)/C(=C\c3cccn3-c3ccc(Cl)cc3)C(=O)N=C2S1	i	0.99	nt	99	-6	6	102
O=C(CN(Cc1ccccc1)C(=O)c1csnn1)NCc1ccccc1	i	0.96	nt	100	-4	nt	nt
Cc1nnc(SCC(=O)Nc2ccccc2)[nH]c1=O	i	0.85	-0.3	110	4	31	139
O=C(Nc1ccc2c(c1)CCC2)Nc1ccc2c(c1)OCO2	i	0.85	nt	103	-5	33	138
O=C(NNC1=NS(=O)(=O)c2ccccc21)c1ccc(Cl)cc1	i	0.96	nt	108	0	-22	127
O=C(Nc1ncc(Cc2cccc(C(F)(F)F)c2)s1)C1CCCO1 (centres undefined)	i	0.89	nt	100	nt	nt	nt
O=C(N(c1ccccc1)c1ccccc1)N(c1ccccc1)c1ccccc1	i	0.93	nt	99	nt	nt	nt
CC(C)(C)OC(=O)N1CCCC(C(=O)CC#N)C1 (centres undefined)	i	1	-1.1	101	5	nt	nt
C/C=C\C=C\C(=O)N1CC2(CC(c3cccc(NC(=O)CC)c3)=NO2)C[C@H]1C(N)=O (some centres undefined)	i	0.88	nt	94	nt	nt	nt
COc1ccc(/C=N/Nc2nc3ccccc3o2)cc1O	i	0.83	0.2	104	5	-11	105
Cc1c(NC(=O)c2cccs2)cccc1[N+](=O)[O-]	i	1.1	nt	101	-5	nt	nt
O=C(Nc1cccc(Oc2ccc(C(=O)O)c(C(=O)O)c2)c1)c1ccc(-c2ccccc2)cc1	i	0.86	nt	103	nt	nt	nt
COc1cc(/C=C/CO)cc(OC)c1OC/C=C(\C)CCC=C(C)C	i	1.1	nt	105	nt	nt	nt
Cc1ccc(S(=O)(=O)N(CC(=O)N/N=C/c2ccco2)c2cc(Cl)cc(Cl)c2)cc1	i	1	1.2	102	19	nt	nt
O=C(CS(=O)c1cccc(C(F)(F)F)c1)Nc1ccc(Cl)cc1Cl (centres undefined)	i	1.1	-1.8	107	1	-65	106
CC[C@H](C)[C@@H](C(=O)N1CCNCC1)n1cc([C@@H](N)CC(C)C)nn1	i	0.96	nt	100	-2	nt	nt
Cc1ccccc1NC(=S)N(CCN1CCCCCC1)Cc1cccs1	i	0.97	nt	101	-5	nt	nt
O=C1CCCC2=C1C(c1ccccc1)n1c(s/c(=C/c3cccc(F)c3)c1=O)=N2 (centres undefined)	nt	nt	-2.5	88	10	-11	152
Cc1ccc(F)c([C@H]2[C@H]3C=CC[C@@H](C)[C@@H]3C(=O)N2Cc2ccccc2)c1	i	0.82	nt	96	nt	nt	nt
CCOC(=O)c1sc(NC(=O)CSc2n[nH]c(-c3ccccc3)n2)c(C#N)c1C	nt	nt	-0.7	60	-3	nt	nt
Cc1nc2ccccn2c1C(=O)NNS(=O)(=O)c1ccc(C(C)(C)C)cc1	i	0.9	-1.6	106	-8	-5	110
CCOC(=O)N1CCN(C(c2ccc(C)cc2)c2sc3nc(C)nn3c2O)CC1 (centres undefined)	i	0.85	nt	107	nt	nt	nt
O=c1c(Cl)c(N2CCN(c3ccc(F)cc3)CC2)cnn1-c1nc2ccccc2s1	i	1	-0.4	108	3	2	123
Cc1ccc(NC(=O)Nc2ccc(Cl)cc2)c(Br)c1	i	0.99	0.0	102	-8	11	73
Clc1ccc(-c2nn3c(-c4ccccc4)nnc3s2)cc1	i	0.79	-0.8	99	-14	-19	69
O=C(O)c1ccc(NC(=O)c2cn(-c3ccccc3)nc2-c2ccc(F)cc2)cc1	i	0.92	nt	99	1	nt	nt
Cc1c(N=Cc2c(O)n(Cc3ccco3)c(=O)c3ccccc23)c(=O)n(-c2ccccc2)n1C	i	0.76	-0.7	102	-11	-95	73
CC(=O)Nc1ccc(C(=O)CSc2nnc(Cn3nnc4ccccc43)n2C)cc1	i	0.83	-1.9	120	-7	nt	nt
COc1ccc(NC(=O)Cn2nnc(-c3ccccc3NS(=O)(=O)c3ccccc3)n2)cc1	i	0.9	-0.2	110	-8	-20	126
OCCNCC12CC3CC(CC(C3)C1)C2	i	1	nt	107	5	-147	95
CC(C)c1ccc(O)c(N)c1	i	0.61	-0.4	108	-6	nt	nt
CCOC(=O)CC(=O)CSc1nc(-c2cccnc2)ccc1C#N	i	0.93	-1.6	96	-3	31	64
COc1ccc(C(=O)NC(Oc2ccccc2)C(Cl)(Cl)Cl)cc1 (centres undefined)	i	0.95	-0.5	102	-6	16	145
CO/N=C(\c1nonc1N)N1CCN(c2ccc([N+](=O)[O-])cc2Cl)CC1	i	0.86	-2.2	95	-6	6	81
CCOC(=O)c1c[nH]c2c(Cl)ccc(Cl)c2c1=O	i	1.2	-1.6	105	-4	nt	nt
NS(=O)(=O)c1ccc(NNC(=O)c2ccc(F)cc2F)cc1	i	0.96	nt	95	nt	nt	nt
CCOc1ccc(-c2cc(C(=O)NN=C3CCN(C)CC3)[nH]n2)cc1	i	0.89	nt	99	-4	-36	57
On1nnc2ccc3ccccc3c21	i	0.93	0.2	107	-5	nt	nt
Clc1ccc(-c2nnc3n2CCCC3)cc1	i	0.8	-1.2	102	-6	-9	136
CC(C)c1[nH]nc2c1C(c1cccs1)C(C#N)=C(N)O2 (centres undefined)	i	1	-2.2	113	5	47	130
O=C(NCc1ccccc1)c1ccc2nc(-c3ccco3)c(-c3ccco3)nc2c1	i	1.2	-1.0	73	-1	22	116
COCCCn1c(=S)[nH]c2ccc(N3CCOCC3)cc2c1=O	i	0.83	nt	84	nt	nt	nt
CN(C)CCNCCCOc1ccccc1-c1ccccc1	i	1	nt	105	-1	nt	nt
CCN(CC)CCn1c(NCc2ccc(C)o2)nc2ccccc21	nt	nt	-2.1	79	3	37	101
Cc1cc(-c2ccc(Cl)cc2Cl)c(C#N)c(=O)[nH]1	i	0.95	nt	95	nt	nt	nt
CCc1ccc2[nH]c(=O)c(C(c3nnnn3Cc3ccc(OC)cc3)N3CCOCC3)cc2c1 (centres undefined)	i	1	-0.7	104	10	-9	43
N#CC(C(=O)NC1CC1)c1nc2ccccc2nc1N1CCN(C/C=C/c2ccccc2)CC1 (centres undefined)	i	0.96	0.0	101	4	-3	84
O=C(O)c1c(C(=O)N2N=C3/C(=C/c4ccccc4)CCCC3C2c2ccccc2)cccc1[N+](=O)[O-] (centres undefined)	i	0.92	nt	104	-2	nt	nt

Other compounds:
compound	HSV augment	HSV augment primary fold	GALR2 agonist	RGS16-Gao	PKD1 inh	Insulin prom inh	Insulin prom inh cell count
CC(=O)NC(Cc1ccc(C)cc1)C(=O)NC1CCN(C(=O)c2ccc([N+](=O)[O-])cc2)CC1 (centres undefined)	i	0.93	-0.9	105	0	nt	nt
CCC(C)NC(=O)C1CCN(S(=O)(=O)N2CCC3(CC2)OCCO3)CC1 (centres undefined)	i	0.97	nt	102	-8	nt	nt
COc1cc(C(=O)NCc2cn3ccsc3n2)cc(OC)c1OC	i	1.1	-3.0	nt	-4	-19	85
COC(=O)CSc1nnc2n1C(C)(C)Cc1ccccc1-2	i	0.88	-1.9	97	15	nt	nt
CN(C)c1cc[n+](/C(C(=S)Nc2ccc(SC(F)F)cc2)=C(/[O-])c2ccccc2)cc1	i	0.98	nt	100	-3	nt	nt
CC(=O)Nc1ccc(S(=O)(=O)Oc2ccc(C=O)cc2)cc1	i	0.92	-1.6	126	-9	21	79
COc1cccc(CN2CCNC(=O)C2CC(=O)NC2Cc3ccccc3C2)c1 (centres undefined)	i	0.97	nt	102	2	nt	nt
COC(=O)c1cccc(NC(=O)/C(=C\c2ccccc2)NC(=O)c2ccccc2Cl)c1	i	0.99	-1.6	104	-3	-29	52
CC1(C)Oc2ccc(C(=O)NN)cc2NC1=O	nt	nt	nt	104	-3	21	178
COc1ccc(NC(=O)c2ccc(-c3ccc(C)c4ccccc34)o2)cc1	i	0.89	-1.4	50	-1	14	114
CC1CCN(C(=O)CSc2ccc(-c3ccccc3)nn2)CC1	i	1	nt	101	5	-14	105
Nn1c(SCc2ccccc2)nc2c(cnn2-c2ccccc2)c1=O	i	0.93	nt	108	-3	nt	nt
COc1cccc(C(=O)NC(=S)Nc2ccc(Cl)cc2C(=O)O)c1	i	1.1	nt	98	nt	nt	nt
CCCCN(C)C(=O)C(Cc1ccccc1)NS(=O)(=O)c1ccc2c(c1)CCC(=O)N2 (centres undefined)	i	0.8	-2.6	117	-10	nt	nt
CSCCC(C(=O)N1C[C@]2(C)C[C@H]1CC(C)(C)C2)N1C(=O)c2ccccc2C1=O (some centres undefined)	i	0.96	-0.6	104	17	8	89
CCOC(=O)CSc1nnc([C@H](CC(C)C)NC(=O)OC(C)(C)C)o1	i	0.95	0.1	100	-3	-17	153
O=c1c(Cl)c(N2CCC3(CC2)OCCO3)cnn1C12CC3CC(CC(C3)C1)C2	i	0.87	nt	98	nt	nt	nt
CC(C)N(CCNCC(O)COc1ccc(C(C)(C)c2ccccc2)cc1)C(C)C (centres undefined)	i	0.76	nt	109	-3	nt	nt
CCCc1cc(=O)[nH]c(SCc2csc(-c3ccccc3)n2)n1	i	1	-1.3	83	-5	53	91
Cc1ccc(Cn2ncc(C)c2N)o1	i	1.1	nt	122	-3	nt	nt
COc1ccc(OC)c(C2C(C(=O)c3cc4ccccc4o3)=C(O)C(=O)N2c2cc(C)on2)c1 (centres undefined)	i	0.93	-1.4	109	-10	nt	nt
COc1cc(C(=O)COC(=O)CNC(=O)C2CCCCC2)cc(OC)c1OC	nt	nt	-1.1	101	-11	3	81
O=C(/C=C/c1ccc(F)cc1)NNC(=O)CCN1CCN(Cc2ccccc2)CC1	i	0.97	nt	102	-2	nt	nt
COc1ccc([N+](=O)[O-])cc1C(=O)Nc1ccc(Cc2ccncc2)cc1	i	0.89	nt	109	-6	nt	nt
CCOC(=O)CCn1nnc(N)n1	i	0.93	-1.2	102	-3	19	125
O=C(Nc1ccc(-n2cnnn2)cc1)c1cn2ccccc2n1	i	0.84	nt	97	nt	nt	nt
O=C(CCC(=O)NNC(=O)Nc1ccc(Cl)cc1)NCc1ccccc1	i	0.78	-3.9	126	-15	-27	81
COC(=O)c1ccc(CSc2nnc(NC(=O)c3cc4c(s3)CCCC4)s2)cc1	i	0.97	-1.1	101	-3	-16	115

No new results follow: an excerpt of the list.
compound	HSV augment	HSV augment primary fold	GALR2 agonist	RGS16-Gao	PKD1 inh	Insulin prom inh	Insulin prom inh cell count
O=C(Nc1ccc(-n2cnnn2)cc1)c1cn2ccccc2n1	i	0.84	nt	97	nt	nt	nt
O=C(CCC(=O)NNC(=O)Nc1ccc(Cl)cc1)NCc1ccccc1	i	0.78	-3.9	126	-15	-27	81
COC(=O)c1ccc(CSc2nnc(NC(=O)c3cc4c(s3)CCCC4)s2)cc1	i	0.97	-1.1	101	-3	-16	115
